# MT1-MMP act inh: blocks activation of human MT1-MMP; P50281; HT1080 RFP-PRO-GFP cells, GFP/RFP ratio fluorescence, overnight; percent of plate control window, DMSO zero; GFP/RFP ratio change, % at 20 µM; actives 0.061% (n = 360,000); AID 651647;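 active = GFP/RFP ratio change of at least 30% with cell ATP level not reduced by more than half and red fluorescence within 50% of control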; also: strong numbers were not always called active
#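 Read-out: GFP/RFP fluorescence ratio; Test system: RFP-PRO-GFP reporter HT1080 cells; Compound dosing: single-point 20 µM compound, 1% DMSO; Times: overnight compound exposure at 37 °C.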
# eIF4H FP inh: inhibitors of RNA binding by human eIF4H; Q15056; eIF4H fluorescence polarization binding assay; inhibition, % at 35 µM; actives 0.94% (n = 290,000);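 active = 50% or more with normal probe brightness, or confirmed in later tests; inconclusive = above 50% with abnormal brightness, or retests that disagree; inactive = below 50% or failed in later tests; about a fifth of its hits are not listed in these tables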;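 also: calls also rest on retests at 20 µM and on dose response follow-up; 0% = protein and probe with vehicle and 100% = probe without protein; strong numbers were not always called active; many hits fall short of the cut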
# CSC inhib: cancer stem cell inhibition | cancer stem cell-like cells viability, luminescence | inhibition, % at 7.5 µM | actives 1.1% (n = 300,000) | AID 2717;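 active = mean at 75% or more and at least half the replicates too; inconclusive = mean and replicates disagree; tested in HMLE shEcad cells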;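 also: 0% = median of negative and 100% = median of positive control wells; the first replicate is given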
# Rce1 inh: inhibitors of yeast Ras-converting enzyme | Q03530 | yeast membranes, quenched prenylated peptide cleavage fluorescence | calls only | actives 0.27% (n = 290,000) | AID 2563;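 active = fall in fluorescence gain of 50% or more versus controls, with final raw signal at or below 3038400; inconclusive = same 50% fall but final raw signal above 3038400; inactive = fall in fluorescence gain under 50%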;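 also: plate controls were neutral control wells for no effect and wells lacking membranes for full effect; tested at 10 µM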
# Target sequence (Q03530 whole entry, looked up): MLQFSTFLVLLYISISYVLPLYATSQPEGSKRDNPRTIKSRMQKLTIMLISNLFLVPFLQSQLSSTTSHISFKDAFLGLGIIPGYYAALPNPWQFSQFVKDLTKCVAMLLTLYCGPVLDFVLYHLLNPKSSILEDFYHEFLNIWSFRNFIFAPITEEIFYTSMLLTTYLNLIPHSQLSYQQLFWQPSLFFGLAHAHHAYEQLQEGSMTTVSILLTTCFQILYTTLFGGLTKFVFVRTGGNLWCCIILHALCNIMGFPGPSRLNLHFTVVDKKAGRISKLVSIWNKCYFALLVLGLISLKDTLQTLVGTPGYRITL
# HIV Env fusion: inhibitors of HIV Env-mediated cell fusion; HeLa-JRFL Env/CEM21 cell fusion, luciferase; inhibition, % at 12.3 µM; actives 1.1% (n = 360,000);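 active = mean replicate inhibition score of at least 50 and every replicate individually at or above 50; inconclusive = only one of the two criteria met; inactive = mean below 50 and not all replicates reaching 50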;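 also: 0% = plate neutral controls and 100% = maraviroc near 300 nM; one replicate is shown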
# PABP FP inh: PABP-poly(A) binding inhibition | PABP-poly(A) RNA binding, fluorescence polarization | actives 1% (n = 290,000) | AID 2014 | inhibition, % at 35 µM | P11940;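 active = 50% or more with normal probe brightness, or confirmed in later tests; inconclusive = above 50% with abnormal brightness, or retests that disagree; inactive = below 50% or failed in later tests; about a fifth of its hits are not listed in these tables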;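 also: calls also rest on retests at 20 µM and on dose response follow-up; controls were probe without protein and protein plus probe with vehicle; some compounds called inactive have numbers as strong as hits; many hits fall short of the cut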
# Target sequence (P11940 whole entry, looked up): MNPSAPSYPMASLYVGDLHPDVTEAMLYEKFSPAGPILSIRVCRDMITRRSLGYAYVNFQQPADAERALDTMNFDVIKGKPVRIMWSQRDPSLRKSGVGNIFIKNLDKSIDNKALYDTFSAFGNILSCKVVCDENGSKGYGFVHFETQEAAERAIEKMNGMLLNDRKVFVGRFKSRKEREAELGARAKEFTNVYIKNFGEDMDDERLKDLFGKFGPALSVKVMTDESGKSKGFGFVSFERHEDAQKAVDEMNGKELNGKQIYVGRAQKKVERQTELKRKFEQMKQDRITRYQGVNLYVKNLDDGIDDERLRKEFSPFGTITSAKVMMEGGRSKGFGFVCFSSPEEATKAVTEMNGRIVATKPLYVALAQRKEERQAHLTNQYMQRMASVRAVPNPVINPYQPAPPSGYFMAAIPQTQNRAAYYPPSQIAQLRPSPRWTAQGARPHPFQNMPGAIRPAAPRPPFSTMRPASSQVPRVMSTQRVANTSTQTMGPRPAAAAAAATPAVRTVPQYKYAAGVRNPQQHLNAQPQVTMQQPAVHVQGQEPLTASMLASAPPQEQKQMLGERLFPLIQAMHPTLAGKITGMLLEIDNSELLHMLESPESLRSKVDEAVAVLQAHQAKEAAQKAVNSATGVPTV
# UUG fidelity: yeast start codon fidelity modulation. actives 0.13% (n = 350,000). S. cerevisiae UUG-firefly luciferase reporter, luminescence/redox ratio. AID 602363. activity score, % at 18.7 µM;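 active = replicate mean at a twofold rise or more, about +100% in these data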;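 also: firefly luciferase made from a UUG start codon reports start codon fidelity; reporter light over untreated wells divided by growth signal over untreated wells; some hits fall short of that in this replicate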
# eIF4H FP inh retest: also measured in eIF4H FP inh; calls as there; inhibition, %; compound at 20 µM; confirmation average;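 mean of two retest wells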
# PABP FP inh retest: also measured in PABP FP inh; calls as there; inhibition, %; compound at 20 µM; confirmation repeats;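 mean of two retest wells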
# MT1-MMP act inh RFP: also measured in MT1-MMP act inh; calls as there; RFP signal change, %; measured here: RFP expression control read;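 0 = vehicle wells; hits needed this value within 50% of zero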
# * = called active by the depositor; i = inactive; u = inconclusive; x = not tested or not shown; & = joins results of further samples. Compounds as they come; overall some 3% were active at least once.
SMILES,MT1-MMP act inh,MT1-MMP act inh RFP,eIF4H FP inh,CSC inhib,Rce1 inh,HIV Env fusion,PABP FP inh,UUG fidelity,others
CSc1nc(N)nc2c1ncn2CC(=O)NCC(c1ccccc1)c1ccccc1,7,-6,x,x,x,-2,x,-7,
COc1cccc(NC(=O)CN2CCN(c3ccc(F)cc3)CC2)c1,3,-1,-5,4,i,x,-6,-7,
COc1ccc(C2CC(=O)C=C(NNS(=O)(=O)c3ccc(C)cc3)C2)cc1 (centres undefined),-5,4,-12,0,i,x,-5,x,
O=C(O)CCC(=O)N1N=C(c2c(-c3ccccc3)c3cc(Cl)ccc3[nH]c2=O)CC1c1ccccc1 (centres undefined),-6,-1,-7,-7,i,-1,5,x,
CCOC(=O)c1cc(C(C)(C)C)oc1CN,-1,-1,-10,-5,i,x,-8,-13,
C/C=C(\C)C(=O)NCCN1C2=NC[C@H](Cc3ccc(O)cc3)N2C[C@H]1Cc1ccc(O)cc1,-2,2,0,-3,i,7,-3,-17,
O=C1c2cc(Cl)ccc2-c2c(O)cc(Cl)cc21,-5,-20,x,x,x,23,x,-15,
Cc1ccc(-c2nn(-c3ccccc3)cc2C(=O)Nc2cccc(S(=O)(=O)NC3=NCCC3)c2)cc1,-1,-2,x,x,x,29,x,12,
Cc1ccc(NC(=O)NC2CC(=O)N(c3ccc4c(c3)OCCO4)C2)cc1C (centres undefined),-6,-2,x,-18,i,43,x,-17,
CN1CCS/C1=C\C=C1/SC(=S)N(CC(=O)O)C1=O,-109,4,u,x,x,-4,1,x,
CCC(C)(NC(=O)c1ccccc1)C(=O)O (centres undefined),-5,4,2,-5,i,x,8,5,
COc1ccc(OC)c(CN2CCN(C(=O)c3cc4ccccc4cc3O)CC2)c1,0,-4,-10,0,i,-105,-5,1,
COc1ccc(C2(c3ccc(OC)cc3)NC(=O)N(CC(=O)N3CCOCC3)C2=O)cc1,-4,0,x,x,x,-10,x,-5,
CCCN(CCC)Cc1c(C(=O)N/N=C/CCc2ccccc2)nnn1-c1nonc1N,2,4,-12,-2,x,10,0,-5,
COc1ccc(-c2ccc3c(c2)S(=O)(=O)c2cccc(C(=O)NCc4cc(C)oc4C(F)(F)F)c2C3=O)cc1OC,-10,-1,x,3,x,x,x,-8,
Cc1ccc(C(C)C)c(OCC(=O)Nc2ccccc2N2CCN(C)CC2)c1,-13,-9,-3,13,i,x,-12,-11,
COc1ccc(NS(=O)(=O)c2ccc(C)c(C(=O)NNC(=O)c3csc(N4CCOCC4)n3)c2)cc1,1,1,x,-9,i,3,x,x,
Cc1occc1C(=O)Nc1ccc2c(c1)OCCO2,7,9,-9,7,i,-12,-7,-24,
N#CCn1c(Cc2ccccc2)nc2ccccc2c1=O,-3,0,-9,x,i,-9,-9,1,
Cc1ccc(C(C(=O)NC(C)(C)C)N(Cc2cccnc2)C(=O)C(=O)NC2CCCCC2)o1 (centres undefined),3,7,21,-7,i,-8,3,x,
COc1ccc(C(=O)Nc2ccc3[nH]ccc3c2)cc1OC,2,2,x,0,i,-161,x,-25,
CCOc1cccc(SCc2noc(C(=O)NC(C)C)c2C(=O)O)c1,x,x,-12,-1,i,-52,2,x,
Cc1nn(CC(=O)NCc2ccccc2)c(C)c1[N+](=O)[O-],1,4,-7,4,i,x,-4,-5,
C=CCOc1cccc(C2C(C(=O)c3cc4ccccc4o3)=C(O)C(=O)N2c2cc(C)on2)c1 (centres undefined),1,1,5,-15,i,-10,13,-29,
O=C(NCCCNCc1ccccc1)c1ccc(/C=N/O)nc1,2,-2,2,x,i,-23,-3,10,

# (further entries)
SMILES,MT1-MMP act inh,MT1-MMP act inh RFP,eIF4H FP inh,CSC inhib,Rce1 inh,HIV Env fusion,PABP FP inh,UUG fidelity,others
O=C(C(=O)N1CCc2ccccc2C1)c1cn(CC(=O)N2CCOCC2)c2ccccc12,0,0,11,-2,i,3,18,-1,
CC(C)COC(=O)C1C(=O)CC(C)(O)C(C(=O)OCC(C)C)C1c1cccnc1 (centres undefined),2,5,1,-5,i,-76,-9,-6&1,
CCc1nc(N)c(C#N)c(-c2cccc3ccccc23)c1C,1,3,1,x,i,x,3,-4,
COc1ccccc1NC(=O)NC(=O)c1ccccc1,-3,0,-16,-18,i,-97,-3,-10,
COCCCn1c(SCC(=O)N2CCOCC2)nnc1-c1ccco1,0,2,-8,-7,i,5,-10,-2,
O=C(CN(Cc1ccco1)C(=O)c1nsc(Cl)c1Cl)NC1CCCCC1,1,5,2,5,i,10,-3,-10,
CCN(CC)C(=O)c1sc(NC(=O)Cc2ccccc2)c(C#N)c1C,7,7,-5,-8,i,x,-5,-7,
COc1ccc(NC(=O)CCCn2c(=O)c3sccc3n(Cc3cccc(C)c3)c2=O)cc1,1,-8,4,-15,i,x,1,-12,
CC(Oc1cc(Cl)ccc1Cl)C(=O)N/N=C\c1ccnn1C (centres undefined),4,1,-4,-11,i,3,1,-30,
CC(C)N1CC(O)=C(c2ccccc2)C1=N,0,1,1,9,i,x,-12,-1,
CCOC(=O)C1=C(c2ccccc2)NC(SC)=C(C#N)C1c1ccco1 (centres undefined),-10,-7,-6,14,i,x,-5,-9,
O=C(Cn1nc(-c2ccc(Cl)cc2)ccc1=O)NCCCN1CCN(Cc2ccccc2)CC1,-4,-4,-11,-6,i,x,0,0,
O=C(Nc1ccc2c(c1)OCO2)c1ccc(=O)[nH]n1,-1,2,-1,-4,i,-11,-9,-19,
COc1ccc(CCNC(=O)C2CCN(C(=O)c3ccc(C(C)(C)C)cc3)CC2)cc1OC,12,-8,-9,-10,i,-80,2,13,
COc1cccc(/C=N/NC(=O)C(=O)NCc2ccco2)c1O,2,1,15,12,i,x,-7,-3,
CNC(=O)C12CC3CC(CC(Cl)(C3)C1)C2,-7,2,6,-4,i,-1,6,x,
COc1cc(OC)c(NC(=O)CCNS(=O)(=O)c2cc(Br)cnc2N)cc1Cl,4,1,2,0,i,x,-2,-10,
CC(Sc1cccc[n+]1[O-])C(=O)Nc1ccc([N+](=O)[O-])cc1Cl (centres undefined),-3,0,8,x,i,-4,u,x,
O=C(CNS(=O)(=O)c1cccs1)N1CCCCC1,-1,1,3,-16,i,-6,2,-20,
O=C1N=C(N2CCN(c3ccccc3)CC2)S/C1=C/c1cccs1,0,-1,4,-3,i,5,13,x,
O=C(NCCOc1ccccc1)C(c1ccccc1)c1ccccc1,-5,2,-2,12,i,-88,-14,-15,
Cn1c(=S)[nH]c(=O)c2ncc(=O)[nH]c21,-2,2,3,4,i,-109,1,x,
OCCOCCOc1cccc2[nH]ccc12,4,5,-10,5,i,-5,-10,x,
CCOc1ccc(CN=C(N)N=C(N)N)cc1Cl,-2,-10,-18,0,i,x,5,-14,
O=C(CSc1ncccn1)NN=C1CCCCCC1,5,8,82*,-7,i,x,120*,x,eIF4H FP inh retest=97*;PABP FP inh retest=77*

# Remaining list, next part.
SMILES,MT1-MMP act inh,MT1-MMP act inh RFP,eIF4H FP inh,CSC inhib,Rce1 inh,HIV Env fusion,PABP FP inh,UUG fidelity,others
Cc1ccc(OCC(=O)N2CCCC(CCC(=O)N(C)CCc3ccccn3)C2)cc1 (centres undefined),-1,0,-2,-8,x,5,2,4,
O=C(O)c1nc(N2CCOCC2)nc(N2CCOCC2)n1,-1,2,-1,-6,i,x,-9,-20,
Cc1ccc(NC(=O)CC2S/C(=N/c3nccs3)N(C)C2=O)cc1C (centres undefined),6,1,0,1,i,x,-11,-2,
CN(CC(=O)Nc1cccc(F)c1)C(=O)c1cc([N+](=O)[O-])ccc1N1CCCCC1,2,5,x,2,i,-1,x,5,
Cc1ccc(C)c(NC(=O)CNS(=O)(=O)c2ccccc2)c1,12,2,14,6,i,12,4,-7,
COc1ccc(Cc2nc3ccc(C(=O)N(C)Cc4cc(C)[nH]n4)cc3o2)cc1OC,0,-7,-3,0,i,-10,-5,x,
CC(Cc1nnc(N)s1)c1ccccc1 (centres undefined),-2,-1,1,-2,i,4,-1,-11,
Cc1ccc(N(CC(=O)NCC2CCCO2)C(=O)CNS(=O)(=O)c2ccc(Cl)cc2)cc1 (centres undefined),1,2,-4,-13,i,10,1,4,
Cc1ccc(NS(=O)(=O)c2c(C)nc3sccn3c2=O)cc1C,-1,-6,-4,-4,i,26,-6,-9,
NCCc1nnc(SCc2c(Cl)cccc2Cl)o1,-3,-1,-9,-2,i,-27,-1,x,
CCOc1ccc(CCNC(=O)CCc2nnc3ccc(N4CCCC4)nn23)cc1OCC,3,4,-8,x,i,-4,-6,-18,
Cc1n(Cc2ccccc2)c2cc([N+](=O)[O-])ccc2[n+]1Cc1ccccc1,2,-2,3,-10,i,12,5,-5,
Cc1ccccc1-c1c(C)oc2cc(O)ccc2c1=O,6,0,8,-16,u,x,8,-21,
CCCCn1nc(NC(=O)CCC)c2cc3cc(OC)ccc3nc21,4,3,-5,-16,i,-11,2,0,
CC(C)=CCN1CCN(Cc2ccc(C#CC(C)(C)O)s2)CC1CCO (centres undefined),-4,0,-7,11,i,15,-2,x,
Cn1cc(CN2CCC(CO)(CCCc3ccccc3)CC2)c(-c2ccccc2)n1,-1,2,-8,-6,i,20,13,-7,
Cc1ccc(NS(=O)(=O)c2cccc(C(=O)NCC(c3ccco3)N3CCCC3)c2)cc1 (centres undefined),0,-2,x,x,x,-8,x,-7,

# Structures from the list above that contain a halogen:
SMILES,MT1-MMP act inh,MT1-MMP act inh RFP,eIF4H FP inh,CSC inhib,Rce1 inh,HIV Env fusion,PABP FP inh,UUG fidelity,others
COc1cccc(NC(=O)CN2CCN(c3ccc(F)cc3)CC2)c1,3,-1,-5,4,i,x,-6,-7,
O=C(O)CCC(=O)N1N=C(c2c(-c3ccccc3)c3cc(Cl)ccc3[nH]c2=O)CC1c1ccccc1 (centres undefined),-6,-1,-7,-7,i,-1,5,x,
O=C1c2cc(Cl)ccc2-c2c(O)cc(Cl)cc21,-5,-20,x,x,x,23,x,-15,
COc1ccc(-c2ccc3c(c2)S(=O)(=O)c2cccc(C(=O)NCc4cc(C)oc4C(F)(F)F)c2C3=O)cc1OC,-10,-1,x,3,x,x,x,-8,
O=C(CN(Cc1ccco1)C(=O)c1nsc(Cl)c1Cl)NC1CCCCC1,1,5,2,5,i,10,-3,-10,
CC(Oc1cc(Cl)ccc1Cl)C(=O)N/N=C\c1ccnn1C (centres undefined),4,1,-4,-11,i,3,1,-30,
O=C(Cn1nc(-c2ccc(Cl)cc2)ccc1=O)NCCCN1CCN(Cc2ccccc2)CC1,-4,-4,-11,-6,i,x,0,0,
CNC(=O)C12CC3CC(CC(Cl)(C3)C1)C2,-7,2,6,-4,i,-1,6,x,
COc1cc(OC)c(NC(=O)CCNS(=O)(=O)c2cc(Br)cnc2N)cc1Cl,4,1,2,0,i,x,-2,-10,
CC(Sc1cccc[n+]1[O-])C(=O)Nc1ccc([N+](=O)[O-])cc1Cl (centres undefined),-3,0,8,x,i,-4,u,x,
CCOc1ccc(CN=C(N)N=C(N)N)cc1Cl,-2,-10,-18,0,i,x,5,-14,
CN(CC(=O)Nc1cccc(F)c1)C(=O)c1cc([N+](=O)[O-])ccc1N1CCCCC1,2,5,x,2,i,-1,x,5,
Cc1ccc(N(CC(=O)NCC2CCCO2)C(=O)CNS(=O)(=O)c2ccc(Cl)cc2)cc1 (centres undefined),1,2,-4,-13,i,10,1,4,
NCCc1nnc(SCc2c(Cl)cccc2Cl)o1,-3,-1,-9,-2,i,-27,-1,x,

# Bioassay records (PubChem)
